High-throughput results deposited in PubChem BioAssay by ICCB-Longwood Screening Facility, Harvard Medical School.
Bm FixLJ act: activators of Burkholderia fixLJ two-component system, primary screen, B. multivorans, GFP reporter; B. multivorans fixK-promoter GFP reporter, 18 h; stronger effect = higher value; z-score (test concentration not listed); 0.3% of 29,000 active;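 active = replicate mean overnight rise in green fluorescent reporter signal, 3 or more SD over negative controls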;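 note: score is relative to vehicle wells of the plate; 300 nL library stock went into each well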
The depositor's hits bear a star; & = joins results of further samples. An excerpt, so the mix of outcomes need not match the whole.

molecule | Bm FixLJ act
Cc1nc(N2CCCC(CNC(=O)c3cc(C)oc3C)C2)c2cnn(C)c2n1 (stereo unspecified) | 0.4
CCc1nc2ccccc2n1CCCCOc1ccc(Cl)cc1 | -1.7
COc1ccc2oc(-c3ccc(C)c(NC(=O)Cc4ccc(Cl)cc4)c3)nc2c1 | 0.09
COc1ccc(S(=O)(=O)N(CCc2ccccc2)CC(=O)NCc2ccccc2)cc1 | 1.6
COc1ccc(/C=C/c2nc(C#N)c(N3CCCCCC3)o2)cc1OC | -3
COc1ccc(CCCc2nnc(SCC(=O)Nc3ccc(F)cc3)o2)cc1C | 0.25
Cc1ccc2c(CCNC(=O)CCC3=NNC(=O)CC3)c(C)[nH]c2c1C | -0.58
O=C(CN1CCN(c2ncccn2)CC1)N1CC(O)C(Cc2ccncc2)C1 (stereo unspecified) | -0.6
CCn1c(C(=O)N2CCC(C(=O)N3CCN(c4ccc(OC)cc4)CC3)CC2)cc2sccc21 | -1.2
CCCOc1ccccc1C(=O)N1CCC2(CC1)CC(C)(O)CCO2 (stereo unspecified) | 0.24
CCOC(=O)COc1ccc(F)cc1C(=O)c1ccn2nc(-c3ccc(Cl)cc3)cc2n1 | -0.52
COc1ccc(Cn2c(=O)[nH]c3cc(C(=O)NCCC(C)C)ccc3c2=O)cc1 | 1.2
CCOc1ccc(C2=NC(c3cccs3)=Nc3ccc(CC)cc3N2)cc1OCC | 0.58
Cc1ccc(Cl)cc1NC(=O)/C(C#N)=C/c1c(C)n(Cc2ccccc2)c2ccccc12 | -2
Cc1cc(NC(=O)c2ccc3c(c2)N(Cc2cccc(Cl)c2)C(=O)c2ccccc2S3(=O)=O)ccc1Br | -0.46
CCCC(=O)Nc1cccc(-c2nc3cc(C)c(C)cc3o2)c1C | 0.22
Cc1ccccc1CN1C(=O)c2ccccc2S(=O)c2ccc(C(=O)NCc3ccc4c(c3)OCO4)cc21 (stereo unspecified) | -1.4
Cc1ccc(S(=O)(=O)N2CCC(O)[C@@](CC3CC3)(C(=O)O)C2)cc1C (stereo partly specified) | -0.02
O=C(NCc1nc2ccccc2[nH]1)c1cccc(Cl)c1 | -2.3
Cc1cccc(-c2ncc(CNCCCN3CCOCC3)cn2)c1 | 0.42

Next section:
molecule | Bm FixLJ act
CCOc1ccc(-c2nc(SCC(=O)NCCCOC)c(-c3ccccc3)[nH]2)cc1 | 0.8
CCc1cccc(CC)c1NC(=O)C(Cc1ccccc1)NS(=O)(=O)c1cccc2nsnc12 (stereo unspecified) | -2.1
CCOc1ccc(Cn2c(-c3ccc(OCC)c(OC)c3)nc3ccccc32)cc1OC | -3
O=C(Cc1csc2ccccc12)NCc1cccc(Br)c1 | -0.39
COc1ccc(OCC(=O)NC(Cc2c[nH]c3ccccc23)C(=O)O)cc1 (stereo unspecified) | -0.49
Cc1ccc(Cl)cc1N1CCN(C(=O)CCC(=O)Nc2ccc3nc(N4CCC(C)CC4)cc(C)c3c2)CC1 | 0.69
CCc1ncc(C(=O)NC2COCC2Cc2ccncc2)cn1 (stereo unspecified) | -0.56
Oc1ccccc1-c1nc(/C=C/c2ccccc2)nn1-c1ccccc1 | 1.2
CCOc1ccc(OCC(=O)Nc2ccc(S(=O)(=O)Nc3cc(C)on3)cc2)cc1 | -2.4
CCOc1ccc(-n2nc3ccc(NC(=O)COc4ccccc4)cc3n2)cc1 | 0.59
Cc1noc(NS(=O)(=O)c2ccc(NC(=O)c3ccc(Br)cc3)cc2)c1C | -1.2
CCc1nc2c(cnn2-c2ccc(C)cc2)c(=O)n1Cc1ccccc1 | -1.2
Cc1cc(C)c2nc(N3CCCC(C(=O)NCc4cccc(Cl)c4)C3)sc2c1 (stereo unspecified) | -1.1
CC1(C)CC(=O)c2cc(C(=O)Nc3ccc(Br)cc3)c(=O)[nH]c2C1 | -0.54
COc1ccc(N2CCN(Cc3nc4c(c(=O)[nH]c(=O)n4C)n3Cc3ccccc3C)CC2)cc1 | 0.79
Cc1cccc(Oc2nc3c(c(=O)n(C)c(=O)n3C)n2Cc2ccccc2)c1C | -1.1
CCC(Nc1cccc(OC)c1)C(=O)NCc1snnc1C(C)C (stereo unspecified) | -0.54
CCOc1ccc(-n2nc(CO)c(C(=O)NCC(C)O)n2)cc1 (stereo unspecified) | -0.47
CCCCc1ncc(CN2CC3CCC(C2)C3NC(=O)C=Cc2ccccc2)[nH]1 (stereo unspecified) | 0.91
Cc1nc(C2CCCN(C(=O)COc3ccc(Cl)cc3)C2)cc(=O)[nH]1 (stereo unspecified) | -1.1

(more compounds)
molecule | Bm FixLJ act
Cc1cc(S(=O)(=O)NCCc2noc(C3CCCC3)n2)c(Cl)cc1F | -0.98
CCN(CC)S(=O)(=O)c1ccc2c(c1)c(=O)c(C(=O)NCc1ccc(Cl)cc1)cn2C | -0.2
CCOC(=O)c1cnc2c(C)cc(C)cc2c1Nc1ccccc1OCC | -0.71
COc1cc(C2CC(=O)Nc3ccc4ccccc4c32)ccc1OC(=O)C(C)C (stereo unspecified) | -2.8
Cc1ccccc1Nc1c(-c2cccnc2)nc2cccc(C)n12 | -1.9
Cc1cccc(C)c1Nc1c(-c2ccc(Cl)s2)nc2ncccn12 | 0.08
CCNc1ncc(C(=O)N2CC3c4ccccc4OC[C@]3(C(=O)O)C2)cn1 (stereo partly specified) | -0.03
COc1cc(NC(=O)c2cc(-c3ccc4c(c3)OCO4)on2)cc(OC)c1OC | 3.7*
O=C(NCc1ccc2c(c1)OCO2)c1ccc2c(c1)N(Cc1ccccc1F)C(=O)c1ccccc1S2=O (stereo unspecified) | -2
Cc1ccc(CNC(=O)CCCn2c(=O)c3sccc3n(CC(=O)Nc3c(C)cccc3C)c2=O)cc1 | -0.77
Cc1ccc(Nc2c(-c3ccc(Br)o3)nc3ccccn23)cc1 | -1
CCc1nn(CC(=O)NCc2cccc(OC)c2OC)c(=O)c2cc3occc3n12 | 0.8
CCN(Cc1ccccc1)C(=O)CCS(=O)(=O)c1cc(Br)cc2c1N(C(=O)C1CC1)CC2 | -0.16
COc1ccc(C(NC(=O)c2cccnc2)C2CC(O)C2)cn1 (stereo unspecified) | -0.41
COc1ccc(Cc2nc3ccccc3[nH]c2=O)cc1 | -0.83
CCc1ccc(NC(=O)Cn2c(=O)n(-c3cc(OC)c(OC)c(OC)c3)c(=O)c3ccccc32)cc1 | -0.68
O=C(CCCc1nc(-c2cccnc2)no1)N1CC(n2cccn2)C1 | -0.74
N#Cc1ccc(N2CCN(C(=O)c3ccc(CN4CCCCC4)cc3)CC2)cc1 | -1.7
Nc1ccnc(N2CCCC(c3[nH]ncc3-c3ccc(F)cc3)C2)n1 (stereo unspecified) | -0.16
O=C(Cn1ncc2c(=O)oc3ccccc3c21)NCc1ccc(Cl)cc1 | 0.18

Next part.
molecule | Bm FixLJ act
CC(C)OC(=O)c1c(NC(=O)C2c3ccccc3Oc3ccccc32)sc2c1CCCC2 | -1.6
CCOc1cc(C(=O)Nc2ccc(-c3nc4cc(C)ccc4o3)cc2)cc(OCC)c1OCC | -2.4
CS(=O)(=O)N(Cc1ccccc1)c1ccc(C(=O)Nc2cccc(Cl)c2)cc1 | 0.39
Cc1cccn2c(=O)c(/C=C(\C#N)c3nc4ccccc4s3)c(Oc3ccc(F)cc3)nc12 | -0.65
CCN(Cc1cnn(CC)c1)C(=O)NC(C)c1ccc2[nH]ccc2c1 (stereo unspecified) | -1.5
CCC(=O)N1CC(=O)Nc2ccc(C)cc2C1c1ccc(F)cc1 (stereo unspecified) | -0.77
CCS(=O)(=O)CCNC(=O)c1cc(-c2ccccc2)n[nH]1 | 0.06
Cc1nc(C(C)C)sc1C(=O)NC1COCC1Cc1ccncc1 (stereo unspecified) | -1.1
O=C(Nc1sc2c(c1C(=O)Nc1ccccc1)CCC2)c1ccc(Br)cc1 | -1.1
COc1ccc(F)cc1CN1CCN(C(=O)C2CC2)C2CS(=O)(=O)CC21 (stereo unspecified) | -0.7
CC(=O)c1c(C)oc2ccc(N(C(=O)Oc3ccccc3)S(=O)(=O)c3ccc(C(C)(C)C)cc3)cc12 | -1
CCc1cccc2c(C(C)=O)cn(CC(=O)NCC3COCCN(C)C3)c12 (stereo unspecified) | -0.77
O=c1oc2ccccc2cc1-c1cn2cc(Cc3ccccc3F)sc2n1 | -2.2
CC1CCN(S(=O)(=O)c2ccc3c(c2)oc(=O)n3CC(=O)NC(C)c2ccccc2)CC1 (stereo unspecified) | 0.24
Cc1ccc(-c2cc(NC(=O)C(C)Oc3ccc(C)c(C)c3)on2)cc1 (stereo unspecified) | 1.5
CCn1ccnc1-c1nccn1-c1ccccc1OCc1ccccn1 | 0.2
CCN(C(=O)c1cc2c(=O)n(CC)c3ccccc3c2s1)c1cccc(C(F)(F)F)c1 | -0.5
COc1cccc(NC(=O)CCNC(=O)Cn2cnc3ccccc3c2=O)c1 | 0.57
Cc1ccc2c(=O)cc(C(=O)Nc3sc4c(c3C(=O)NCc3cccnc3)CCCC4)oc2c1 | -1.9
COc1ccc(NC(=O)CSc2nc(-c3ccc(F)cc3)c3cccc(C)c3n2)cc1 | -0.28

Later entries
molecule | Bm FixLJ act
COC(=O)c1ccc(Cn2nnc3c(=O)[nH]c(C4CCCN(S(=O)(=O)c5ccccc5Cl)C4)nc32)cc1 (stereo unspecified) | -2.7
CN(C)C1CN(Cc2cnc(-c3ccc(Cl)cc3)nc2)CC1O (stereo unspecified) | -0.39
COc1ccc(CN2CCn3nc(C(O)C4CC4)cc3C2)c(F)c1 (stereo unspecified) | -2.7
CC(C)NCC(O)COc1ccc(CC(N)=O)cc1 (stereo unspecified) | -0.91&-1.1
O=C(CCc1nc(-c2ccco2)no1)NC1(Cc2ccc(Cl)cc2)CC1 | 1.1
CCCOc1ccc(Cn2c(=O)sc3ccccc32)cc1 | 0.09
O=c1c2ccccc2nc(/C=C/c2ccccc2O)n1-c1ccc(Br)cc1 | 1.6
CN(C(=O)CSc1nc2ccccc2[nH]1)c1ccc(F)cc1 | 0.25
CCCSCCCNC(=O)C1CCCN(C(=O)c2cnn(-c3ccccc3)c2-n2cccc2)C1 (stereo unspecified) | -2.2
CCN1CCC[C@H]1CNC(=O)c1c(O)c(Cl)cc(Cl)c1OC | -2.3
CC(C)COc1ccc(C(=O)Nc2cc(-c3ccccc3)no2)cc1 | 0.07
O=C1CCO1 | 0.82
Cc1ccc(C(=O)Nc2ccc(S(=O)(=O)O)c3cc(S(=O)(=O)O)cc(S(=O)(=O)O)c23)cc1NC(=O)c1cccc(NC(=O)Nc2cccc(C(=O)Nc3cc(C(=O)Nc4ccc(S(=O)(=O)O)c5cc(S(=O)(=O)O)cc(S(=O)(=O)O)c45)ccc3C)c2)c1 | -2&0.3
CN(C)Cc1nnc(C2CCCN(Cc3cccnc3)C2)n1C (stereo unspecified) | 0.83
CSc1ccc(NC(=O)Cn2nnnc2-c2ccccc2F)cc1 | -1.4
CCCN1CCN(CCCNC(=O)C(CC)n2nc(C)n3c(cc4occc43)c2=O)CC1 (stereo unspecified) | -1.7
CCOc1ccc(-c2cc(C)n3nc(C(=O)Nc4cc(Cl)ccc4O)cc3n2)cc1 | -3.5
Cn1c(=NC(=O)c2ccc(S(=O)(=O)N3CCCC3)cc2)sc2cc(F)ccc21 | 0.39
CCCCN(C(=O)CCn1c(=O)oc2ccccc21)c1ccccc1 | 0.36
Cc1ccc(CNC(=O)C(C)n2nc(C)n3c(cc4sccc43)c2=O)cc1 (stereo unspecified) | -1.6

(continued)
molecule | Bm FixLJ act
Cc1cc2oc(C(=O)Nc3ccc(S(=O)(=O)N4CCC(C)CC4)cc3)cc(=O)c2cc1C | -2.7
CC(C)N1CC2(CCC1=O)CCN(C(=O)NCc1cccc(F)c1)CC2 | 0.06
O=C(O)COC1COCCC1NC(=O)c1cccc2c1OCCO2 (stereo unspecified) | -0.27
Cc1ccc(C(=O)CSc2nc(-c3ccccc3)nc3c2CCCC3)cc1 | -2.1
O=C(Cn1c(=O)n(Cc2ccc(C(=O)NCc3ccc4c(c3)OCO4)cc2)c(=O)c2ccccc21)Nc1ccccc1F | -0.42
CN(C)C(=O)CC(O)c1cc2n(n1)CCN(CC=Cc1ccccc1)C2 (stereo unspecified) | -0.4
Cc1ccc(C)c(CN2C(=O)c3ccccc3S(=O)c3ccc(C(=O)NCc4ccccc4)cc32)c1 (stereo unspecified) | 0.38
Cc1[nH]cnc1C(=O)N1CCCN(C(=O)c2ccc(Cn3cnnn3)cc2)CC1 | -0.02
CC(C)Cc1cc(CNC(=O)Nc2nnc(C(C)(C)C)s2)on1 | 0.89
O=C(Nc1ccccc1)c1cc2n(n1)CCN(C(=O)C1CCCCO1)C2 (stereo unspecified) | 0.27
Cc1ccc(-c2nnc(Nc3ccc(F)cc3)c3ccccc23)cc1S(=O)(=O)N1CCN(C)CC1 | 0
CCC(NC(=O)CCS(=O)(=O)c1ccccc1)c1cn2cccnc2n1 (stereo unspecified) | -1.2
CC1=C(C(=O)OC2CCCC2)C(c2ccccc2C(F)(F)F)CC(=O)N1 (stereo unspecified) | 0.27
